Screening results (PubChem BioAssay)
TRPML1 inh = inhibitors of human TRPML1 channel; activity change, negative = inhibition, % (concentration not given with the values); Q9GZU1; TRPML1-inducible cells, Ca2+ dye fluorescence, FDSS; stronger effect = lower value; inhibition of EC80 agonist-evoked calcium signal; actives 0.02% (n = 390,000); AID 624415; in the data active means activity change below about -50%; inconclusive means about -30% to -50%; inactive means above about -30%;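 also: stimulus is agonist 54-4 at its EC80 concentration; % is scaled to controls: 0 for no effect and ±100 for the full control effect; compound concentration not given in the record; the text of the record puts the active cut at -80%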
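Calcium fluorescence in TRPML1-DL cells induced overnight with Tet: a 110 s read after compound pin addition, then a 110 s antagonist read after challenge with 54-4 at 4 uM final (EC80).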
Six1-Eya2 inh = Six1/Eya2 interaction inhibition; Q15475+O00167; AlphaScreen GST-Six1/His-Eya2 binding, biochemical; stronger effect = lower value; control for the full effect not named in the record; activity change, % (concentration not given with the values); actives 0.56% (n = 360,000); AID 651725; in the data active = activity change below about -65%; inconclusive = about -30% to -65%; inactive = above about -30%; also: % is scaled to controls: 0 for no effect and ±100 for the full control effect
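AlphaScreen luminescence read after one hour at 37 °C in darkness. Pin-transferred compounds met GST-Six1 and His-Eya2 protein (5X stock 250 nM/500 nM) plus glutathione donor and Ni-chelate acceptor beads (5X, 50 ug/mL).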
D2 PAM = positive allosteric modulators of human D2 dopamine receptor; potentiation, % (test concentration not listed); actives 0.23% (n = 360,000); AID 624464; DiscoveRx D2 beta-arrestin cells, luminescence, 90 min; 100% = 57 uM dopamine signal; P14416; active = potentiation of 50% or more; inconclusive = 30% to 50%; inactive = 30% or less;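 also: compound concentration not given in the record; tested on top of an EC20 dose of dopamine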
Target sequence (P14416 whole entry, looked up): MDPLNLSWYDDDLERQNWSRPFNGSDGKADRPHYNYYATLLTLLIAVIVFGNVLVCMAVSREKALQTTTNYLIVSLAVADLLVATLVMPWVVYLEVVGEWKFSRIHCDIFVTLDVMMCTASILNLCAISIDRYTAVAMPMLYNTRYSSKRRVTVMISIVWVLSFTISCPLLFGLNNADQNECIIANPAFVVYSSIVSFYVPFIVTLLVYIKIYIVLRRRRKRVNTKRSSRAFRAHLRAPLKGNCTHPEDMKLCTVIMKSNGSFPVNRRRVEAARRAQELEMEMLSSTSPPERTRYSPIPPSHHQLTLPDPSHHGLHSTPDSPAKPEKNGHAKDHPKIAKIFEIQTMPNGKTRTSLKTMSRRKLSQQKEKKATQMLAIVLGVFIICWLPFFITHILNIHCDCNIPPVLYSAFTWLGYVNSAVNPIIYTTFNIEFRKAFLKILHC
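PathHunter beta-arrestin assay in DiscoveRx D2 cells. Compounds were added with an EC20 of dopamine (50 nM final) for 90 min at 37 deg C. Luminescence was read 1 h after detection reagent, with 57 uM dopamine as the EC100 control.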
PINK1 expr mod = PINK1 expression modulation; AID 624263; Potency, µM (highest dose often 76.6 µM), for the others: at the highest dose activation (PINK1 increase), actives largely listed as activators; PINK1 immunofluorescence, high-content cytometry, 24 h; actives 0.2% (n = 410,000); active = well fitted activation curve with a large enough effect; inconclusive = small, poorly fitted or top-dose-only effect; inactive = flat fitted curve, though single readings scatter; cell line not stated here;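 also: potency is read from the fitted curve at half-maximal effect; % of control where 0% means no effect; nearly all actives have a fitted effect of over 65% in size; a mitochondrial uncoupler was the plate control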
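PINK1 protein level read as immunofluorescence by microplate cytometer in a fixed, stained stable cell line after 24 h exposure to five compound concentrations, with CCCP as control.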
TRPML1 ag = activates the human TRPML1 channel | AID 624414 | actives 0.12% (n = 410,000) | Q9GZU1 | activation, % (test concentration not listed) | TRPML1-expressing cells, Ca2+ dye fluorescence, FDSS; host cell line not named in the record; reference of the full effect not given here; in the data active = activation above about 50%; inconclusive = about 30% to 50%; inactive = below about 30%; also: 0% is about no effect; the text of the record puts the active cut at 80%
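In this qHTS format, compounds were pin-transferred onto Ca8-dye-loaded TRPML1-DL cells induced with Tet overnight, and intracellular Ca2+ fluorescence was recorded kinetically for 110 s after a 10 s baseline. A subsequent 4uM final 54-4 (EC80) addition followed by a second 110 s read served as the antagonist phase.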
D2 ag = activates the human D2 dopamine receptor | P14416 | DiscoveRx PathHunter D2 beta-arrestin, luminescence, 90 min; 100% = 57 uM dopamine signal | activation, % (concentration not given with the values) | actives 0.084% (n = 360,000); in the data active = activation above about 40%; inconclusive = about 15% to 40%; inactive = below about 15%; also: compound concentration not given in the record; the text of the record calls up to 30% inactive
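DiscoveRx PathHunter D2 beta-arrestin cells (2,100/well) attached overnight, then compound-stimulated 90 min at 37 C in HBSS/10 mM HEPES/0.1% Tween-20 buffer; beta-galactosidase complementation read by luminescence after 1 h at ambient temperature. Dopamine 57 uM final (EC100) as control.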
Starred values were filed as active, the others as inactive; ? = inconclusive; · = no result given; & = joins results of further samples; [ ] = another dose, or the depositor's remark.

no.	compound	TRPML1 inh	Six1-Eya2 inh	D2 PAM	PINK1 expr mod	TRPML1 ag	D2 ag
1	COCCCN1C(=O)C(=O)/C(=C(/O)c2ccc(S(=O)(=O)N3CCOCC3)cc2)C1c1cccc(Cl)c1 (stereo unspecified)	14	0	-6	-1.3%	0.0	-0.6
2	C=CCn1c(=O)c(C(=O)NCc2ccccc2)c(O)c2ccccc21	·	7	?	21%	·	4.9
3	CN(C)c1cccc(C(=O)N/N=C/c2ccccc2F)c1	13	-8	-22	7.4%	-0.7	-2.0
4	CN=c1nc(-c2ccccc2)n(-c2ccccc2)s1	0	-4	-25	1.7%&-0.3%	-0.5&-0.2	-1.0
5	O=S1(=O)CC(N2CCCCC2)CN1Cc1ccc(F)cc1 (stereo unspecified)	10	1	0	0.3%	0.3	4.7
6	COc1cc(OC)cc(-c2c(C#Cc3ccsc3)c3cc(-c4cccc5[nH]ccc45)ccc3n2C)c1	19	-2	-5	-0.3%	-0.4	-5.3
7	CN1CCN(c2ccc(S(=O)(=O)N3CCCCC3)cc2NC(=O)/C=C/c2ccc(OC(F)F)cc2)CC1	-1	-13	-10	-1.6%	0.0	-4.2
8	COc1cccc(NC(=O)CC2Oc3ccccc3NC2=O)c1 (stereo unspecified)	3	6	1	-0.2%&-0.6%	-0.3	-2.3
9	CCCN(C)C[C@@H]1OCCCC[C@@H](C)Oc2ccc(NS(=O)(=O)c3ccc(OC)cc3)cc2C(=O)N([C@H](C)CO)C[C@@H]1C	?	7	-8	12%	0.6	-4.8
10	Cc1cccc(S(=O)(=O)NC(=O)C2(C)CCN2C(=O)c2sccc2C)c1 (stereo unspecified)	·	3	-6	0.4%	-0.7	-1.6
11	CCCCn1c(N)c(N(CC(C)C)C(=O)C2CC(=O)N(c3ccccc3C(C)CC)C2)c(=O)[nH]c1=O (stereo unspecified)	9	-3	-10	-2.1%	0.7	-3.7
12	CCCCN(C)CCCNC(=O)Cn1ncc2c3ccccc3n(Cc3ccccc3)c2c1=O	-1	·	·	0.8%	1.2	·
13	CC(=O)N1CCN(c2ccc(NC(=O)c3ccccc3C)cc2)CC1	-8	-4	-6	0.3%	1.3	0.4
14	COC(=O)c1ccccc1C(=O)N1CC(O)CO1 (stereo unspecified)	4	10	14	0.5%	11	0.2
15	CC1CCc2nc3ccc(S(=O)(=O)N4CCC(C(=O)NCc5ccccc5Cl)CC4)cc3c(C(=O)O)c2C1 (stereo unspecified)	12&-8	-73*	-12	-0.6%&-0.7%	0.9&1.7	-2.6
16	Cc1ccc(S(=O)(=O)N2CCN(C(=O)CNC(=O)c3ccc(Br)o3)CC2)cc1	-11	6	0	1.3%	1.1	-2.5
17	CC(C)c1[nH]c(=O)c(C#N)c2c1CSC(C)(C)C2	8	6	12	-0.4%	-0.1	-1.8
18	COc1ccc(-c2cnc3c(c2)C(=O)N([C@H](C)CO)C[C@H](C)[C@H](CN(C)C(=O)Cc2cccnc2)O3)cc1	14	-1	0	0.0%	-0.3	-9.1
19	Cc1ccc(Nc2nc(N)nc(CSc3nnnn3-c3ccccc3)n2)cc1	35	-3	13	-1.2%	0.1	6.6
20	CC(C)NC(=O)c1cc(C2CCCCN2C(=O)c2ccc(C(C)C)cc2)on1 (stereo unspecified)	·	4	-7	-0.4%	-0.7	-2.3
21	COc1ccccc1CCNC(=O)NC1CCCCC1	13	2	-4	0.1%	0.2	-0.8
22	O=c1[nH]c2ccc(Cl)cc2c(-c2ccccc2)c1N1CCN(c2ccccn2)CC1	9	-1	-13	1.6%[38.3 µM]	0.1	-1.9
23	CCN(CC)CCNC(=O)Cn1nc(-c2ccccc2)c2ccccc2c1=O	-3	-1	-7	-0.1%	-0.4	-0.9
24	COc1ccc(NC(=O)c2ccc(NC(=O)C3COc4ccccc4O3)cc2)c(OC)c1 (stereo unspecified)	2	5	-9	-0.7%	-0.1	-5.5
25	COc1cccc(CNC(=O)Cn2cc3c(n2)CCCCC3)c1	14	2	-5	0.7%	0.1	1.4
26	COc1cccc(CN(Cc2cccnc2)S(=O)(=O)c2ccc(-n3cnnn3)c(C)c2)c1	-12	-12	9	·	-0.1	-2.8
27	COc1ccc(CC(=O)NCC(=O)N/N=C/c2ccc(C)o2)cc1	-1	3	-20	-3.4%	-0.5	-2.5
28	Cc1ccccc1NC(=O)Cc1nnc(SCC(=O)NC2CCCCC2)n1C	-3	9	-10	-2.3%	-0.3	-3.9
29	COc1ccccc1N1CCN(Cc2ccc(Br)o2)CC1	11	-1	-34	3.1%	0.5	-1.7
30	Cc1ccc(S(=O)(=O)NC(C(=O)N2CCOCCOCCOCCOCC2)C(C)C)cc1 (stereo unspecified)	2	10	0	2.4%	0.2	-1.0
31	CCN(CC)CCc1c(C)[nH]c(C(=O)OCc2ccccc2)c1C	-5	-18	-22	0.7%[38.3 µM]	3.4	-1.6
32	COCCCNC(=S)NNC(=O)c1ccc(S(=O)(=O)N2CCC(C)CC2)cc1	-4	0	-15	-1.1%	-0.4	-6.3
33	CCOc1ccc2cc(C3CC(c4ccco4)=NN3S(C)(=O)=O)c(=O)[nH]c2c1 (stereo unspecified)	-18	-8	1	4.1%	0.5	-0.9
34	COc1ccc([N+](=O)[O-])cc1-n1cnnn1	-4	9	-12	-0.7%	-0.2	3.1
35	CCC(=O)Nc1nc(C)c(-c2csc(Nc3ccc(C(=O)O)cc3)n2)s1	1	-21	7	1.1%	-0.3	1.0
36	CCOC(CNC(=O)c1ccc2c(c1)ncn2-c1ccc(F)c(F)c1)OCC	37	0	-11	0.2%	1.0	-0.9
37	O=C(c1cccs1)N1CCCC(c2nc3c(nnn3Cc3cccc(Cl)c3)c(=O)[nH]2)C1 (stereo unspecified)	-4	-12	0	1.1%	1.4	11
38	O=C(/C=C/c1ccc(Br)o1)Nc1nccs1	6	-9	-8	3.5%	0.1	1.0
39	Cc1cccc(C)c1NC(=O)CN1CCN(C(=O)c2ccc(OCc3cn4ccccc4n3)cc2)CC1	15	1	0	-1.7%	0.2	-0.5
40	O=C(NCc1ccco1)C1CCCN1S(=O)(=O)c1ccc2ccccc2c1 (stereo unspecified)	-13	-4	-4	-3.2%[38.3 µM]	0.0	-2.2
41	COc1ccc(CNc2ncnc3sccc23)cc1OC	20	20	3	1.9%	1.7	7.9
42	COc1cc(C2NC(=O)c3ccccc3O2)cc(OC)c1OC (stereo unspecified)	15	2	-14	1.7%	0.0	-6.5
43	CCN(C(=O)COC(=O)Cc1ccc(F)cc1)c1c(N)n(Cc2ccccc2)c(=O)[nH]c1=O	-4	1	8	3.0%	-0.4	1.2
44	CCOc1ccc(CCNC(=O)C2CC=CCC2C(=O)OC(C)C)cc1OCC (stereo unspecified)	-26	5	-1	-0.8%	0.8	1.8
45	Cc1nn(Cc2cccc(C(=O)Nn3cc([N+](=O)[O-])cn3)c2)c(C)c1[N+](=O)[O-]	-4	-3	-14	0.7%	1.1	-0.5
46	CCN(CC)C(=O)CSc1nc(OC)cc(=O)[nH]1	15	4	7	-0.1%	-0.4	0.3
47	COc1cccc(C(=O)OCC(=O)N2CCC(Cc3ccccc3)CC2)c1OC	-12	-3	-7	1.1%	-0.5	-0.5
48	O=Cc1cn[nH]c1-c1ccccc1	13	1	-3	0.1%	0.6	-2.1
49	Cc1cc(C)nc(N2CCC(C(=O)NNC(=O)Cc3ccccc3)CC2)n1	-9	-2	-9	0.2%	1.4	-2.4
50	Cn1cccc1C(=O)OCC(=O)c1c[nH]c2ccccc12	2	-16	3	-0.3%	0.1	0.0
51	O=C(O)CC(NC(=O)Nc1ccccc1)c1ccc(OC2CCCC2)cc1 (stereo unspecified)	-23	13	-3	4.3%	-0.1	1.7
52	Cc1ccc(N/N=C/c2ccc(N3CCOCC3)cc2)cc1C	-11	-8	0	-1.7%	0.7	-0.8
53	Fc1ccc(Cn2nnnc2C(c2ccc(Cl)cc2)N2CCSCC2)cc1 (stereo unspecified)	14	-1	-3	-0.4%	0.1	-2.8
54	Cn1c(=O)c2c([nH]c(=O)n2Cc2ccc(Cl)cc2Cl)n(C)c1=O	4	·	·	-0.6%	-0.2	·
55	Cc1nc(-c2ccc(Cl)cc2)sc1C1(C)CC(c2cccc(F)c2)=NO1 (stereo unspecified)	8	7	-5	-0.9%	3.3	-2.7
56	CCOC(=O)c1sc2nccc(N(C)C)c2c1N=CNOC	-9	11	-1	-1.5%	1.1	-0.6
57	CC1(C(=O)NCc2ccc(F)c(F)c2)Cc2c(-c3ccc4c(c3)OCO4)ccnc2O1 (stereo unspecified)	·	-12	-2	0.9%	-0.7	2.8
58	Cc1ccc2nc(COc3cccc(NC(=O)c4ccccc4Cl)c3)cc(=O)n2c1	-7	·	·	2.3%	1.2	·
59	CC(C)(C)NC(=O)CN(C(=O)C(=O)Nc1ccc2c(c1)OCCO2)C1CCCC1	2	6	-16	0.1%	-0.4	1.7
60	O=C(NC(c1ccccc1)c1ccc2ccccc2n1)C1CCN(Cc2cccc(C(F)(F)F)c2)CC1 (stereo unspecified)	·	1	-16	?	-0.3	-7.1
61	COc1ccc(C(=O)c2c(C)c3cc(C)ccc3n2CC(O)CN2CCOCC2)cc1 (stereo unspecified)	-13	-12	-8	-1.8%	-0.3	-5.6

Outcome played no part in choosing rows. Share with any hit: about 1%.
